# PABP FP inh: PABP poly(A) RNA binding inhibitors, primary screen, biochemical, fluorescence polarization, uHTS. Polyadenylate-binding protein 1 (Homo sapiens), P11940. inhibition, % at 35 µM. 290,000 tested, 1% active;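 active = 50% or more with normal probe brightness, or confirmed in later tests; about a fifth of its hits are not listed in these tables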;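 also: calls also rest on retests at 20 µM and on dose response follow-up; controls were probe without protein and protein plus probe with vehicle; some compounds called inactive have numbers as strong as hits; many hits fall short of the cut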
# Yeast UUG start: modulators of yeast start codon fidelity, primary screen, whole organism, S. cerevisiae, single point, plate reader; 350,000 tested, 0.13% active; AID 602363, 2012; activity score, % at 18.7 µM; S. cerevisiae UUG-firefly luciferase reporter, luminescence/redox ratio;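 active = replicate mean at a twofold rise or more, about +100% in these data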;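 also: firefly luciferase made from a UUG start codon reports start codon fidelity; reporter light over untreated wells divided by growth signal over untreated wells; some hits fall short of that in this replicate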
# CSC inhib: cancer stem cell viability inhibitors, primary screen, luminescence | inhibition, % at 7.5 µM | 300,000 tested, 1.1% active | cancer stem cell-like cells viability;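 active = mean at 75% or more and at least half the replicates too; tested in HMLE shEcad cells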;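 also: 0% = median of negative and 100% = median of positive control wells; the first replicate is given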
# eIF4H inh: human eIF4H binding inhibitors, primary screen, translation initiation inhibitor project, biochemical, uHTS, fluorescence polarization. eIF4H fluorescence polarization binding assay. inhibition, % at 35 µM. 290,000 tested, 0.94% active. AID 2012, 2009;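 active = 50% or more with normal probe brightness, or confirmed in later tests; about a fifth of its hits are not listed in these tables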;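 also: calls also rest on retests at 20 µM and on dose response follow-up; 0% = protein and probe with vehicle and 100% = probe without protein; strong numbers were not always called active; many hits fall short of the cut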
# MT1-MMP act inh: blockers of MT1-MMP proenzyme processing, primary screen, HT1080 RFP-PRO-GFP cells, GFP/RFP fluorescence | Matrix metalloproteinase-14 (Homo sapiens), P50281 | GFP/RFP ratio fluorescence, overnight; percent of plate control window, DMSO zero | GFP/RFP ratio change, % at 20 µM | 360,000 tested, 0.061% active;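 active = GFP/RFP ratio change of at least 30% with cell ATP level not reduced by more than half and red fluorescence within 50% of control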; also: strong numbers were not always called active
#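 Test system: HT1080 cells expressing an RFP-PRO-GFP fluorescent reporter construct / Compound dosing: single-point 20 µM compound, 1% DMSO / Schedule: cells overnight before dosing, compound overnight, 37 °C, 5% CO2 / Evaluation: GFP/RFP fluorescence ratio / Control set: DMSO and RFP-L50D-GFP cell wells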
# Rce1 inh: yeast Rce1p protease inhibitors, primary screen, biochemical, fluorescence, cell-free homogeneous; CAAX prenyl protease 2 (Saccharomyces cerevisiae (strain ATCC 204508 / S288c)), Q03530; yeast membranes, quenched prenylated peptide cleavage fluorescence; calls only; 290,000 tested, 0.27% active;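 active = fall in fluorescence gain of 50% or more versus controls, with final raw signal at or below 3038400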;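 also: plate controls were neutral control wells for no effect and wells lacking membranes for full effect; tested at 10 µM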
# Target sequence (Q03530 whole entry, looked up): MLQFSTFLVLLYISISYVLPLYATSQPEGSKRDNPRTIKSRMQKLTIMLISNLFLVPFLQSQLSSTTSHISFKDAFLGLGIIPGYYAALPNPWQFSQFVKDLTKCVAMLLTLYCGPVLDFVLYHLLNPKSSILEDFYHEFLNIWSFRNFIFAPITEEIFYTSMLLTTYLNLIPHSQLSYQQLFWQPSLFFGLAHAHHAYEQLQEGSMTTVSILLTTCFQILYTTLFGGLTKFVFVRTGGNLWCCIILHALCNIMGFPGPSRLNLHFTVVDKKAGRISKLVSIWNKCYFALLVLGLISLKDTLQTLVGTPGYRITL
# Env fusion inh: inhibitors of HIV-1 Env-driven cell-cell fusion, primary screen, HeLa-JRFL effector, CEM21 target cells, luciferase. inhibition, % at 12.3 µM. 360,000 tested, 1.1% active. AID 651610, 2012;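 active = mean replicate inhibition score of at least 50 and every replicate individually at or above 50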;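 also: 0% = plate neutral controls and 100% = maraviroc near 300 nM; one replicate is shown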
# eIF4H inh retest: also measured in eIF4H inh; calls as there; inhibition, %; compound at 20 µM; confirmation average;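 mean of two retest wells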
# PABP FP inh retest: further read-out of PABP FP inh, marked with its call; inhibition, %; compound at 20 µM; confirmation repeats;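 mean of two retest wells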
# MT1-MMP act inh RFP: second read-out of MT1-MMP act inh, no call of its own (marks repeat the call); RFP signal change, %; measured here: RFP expression control read;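 0 = vehicle wells; hits needed this value within 50% of zero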
# Numbers without * were called inactive; i = inactive; nt = not tested or not shown. A portion of the library. The share of hits here may be higher or lower than overall.
SMILES,PABP FP inh,Yeast UUG start,CSC inhib,eIF4H inh,MT1-MMP act inh,MT1-MMP act inh RFP,Rce1 inh,Env fusion inh,others
CCN1CCN(Cc2c3ccccc3cc3ccccc23)CC1,18,-13,-14,3,1,0,i,4,
Cc1ccc(C(=O)Nc2nc(N)n(-c3ccccc3)n2)cc1,-12,-31,12,-3,0,1,i,-4,
COc1ccc(C)cc1NC(=O)COC(=O)c1ccc(OCc2ccc(Cl)cc2Cl)c(OC)c1,32,nt,6,4,3,2,i,23,
CC(=O)c1cccc(N/C=C\c2nnnn2-c2ccc(F)cc2)c1,6,-9,4,-13,-11,-5,i,10,
Cc1cc(C)nc(N2N=C(C(C)(C)C)CC2=O)n1,-5,-14,-11,-2,-5,3,i,nt,
COc1ccc(NC(=O)CN(C)C(=O)Cc2n[nH]c(=O)c3ccccc23)cc1,nt,-12,-7,nt,0,7,i,-63,
CC1(C)CC(=O)c2sc(NC(=O)CCS(=O)(=O)c3ccccc3)nc2C1,12,-1,27,-1,2,-1,i,8,
C=CCN1C(=O)CN=C1Nc1ccc(F)cc1,6,-6,-11,3,8,6,i,-10,
O=C(NC1CCCc2ccccc21)c1ccccc1Br (centres undefined),-4,6,-12,0,-1,3,i,nt,
CCOc1ccc(NC(=O)C(C)Sc2nccn2C)cc1 (centres undefined),-6,-18,-1,-8,-4,0,i,-25,
O=C(/C=C/c1ccccc1)N1CCC(Cc2ccccc2)CC1,6,nt,9,0,-2,-4,i,-46,
CC1CCCCN1C(=O)COC(=O)C1CCN(S(=O)(=O)c2ccc3c(c2)OCCO3)CC1 (centres undefined),nt,nt,-2,nt,2,1,i,-11,
CC1CC(C)CN(C(=O)c2ccc(S(=O)(=O)N3CCCC3)cc2)C1 (centres undefined),-12,-1,-1,-5,-5,-3,i,nt,
COC(=O)Cc1ccc(NC(=O)c2ccc(Br)o2)cc1,2,nt,30,-2,-7,-3,i,nt,
NC(=S)N/N=C/C=C/c1ccccc1,-2,nt,-10,-2,-1,-2,i,-23,
O=c1c2cc(Br)cc(Br)c2oc2nc3n(c(=O)c12)CCCS3,2,nt,-3,0,nt,nt,i,nt,
O=S(=O)(NC1=NCCCCCC1)c1cccs1,-2,-15,-14,-7,2,3,i,nt,
O=S(=O)(c1ccccc1)N1N=C(c2cccs2)CC1c1cccc(O)c1 (centres undefined),-3,28,-7,-1,-3,0,i,-5,
O=C(COc1ccc(Cl)cc1)Nc1ccc2oc(-c3ccncc3)nc2c1,-2,-11,-16,-20,4,0,i,nt,
COc1cc(-c2nnc(-c3ccco3)o2)ccc1OCc1ccccc1,2,-9,29,-1,-7,-8,i,-4,
C/C(=N\Nc1ccccc1C)c1cccnc1,11,-5,-8,11,-1,5,i,-11,
CC[C@]12c3[nH]c4cc(-c5ccco5)ccc4c3CCN1C(=O)[C@@H](CC(=O)NCCC1=CCCCC1)C[C@@H]2C(=O)N1CCN(C(=O)C2CC2)CC1,nt,-20,nt,nt,4,-1,nt,-54,
COc1ccc(C2CC(c3cccs3)=NN2c2nc(C)c(C(C)=O)s2)cc1OC (centres undefined),0,-18,nt,-2,7,8,i,-4,
Cc1ccc(OCc2nnc(SCC(=O)Nc3ncc(C)s3)o2)cc1,9,nt,5,-9,1,1,i,-6,
Cc1cc(C)c(S(=O)(=O)/N=C2/C=C(Sc3ncn[nH]3)C(=O)c3ccccc32)cc1C,11,nt,103*,7,-94,-5,nt,18,
O=C(CCNC(=O)c1ccc(Cl)cc1)Nc1ncccc1O,1,-23,6,4,-1,2,i,0,
O=C(Nc1ccccc1)c1ccc(F)c(S(=O)(=O)N2CCOCC2)c1,-2,-11,-8,-11,7,3,i,-86,
COc1ccc(-c2nn(CCC#N)cc2/C=N/O)cc1OC,6,nt,-9,-8,-4,0,i,-12,
CCNS(=O)(=O)c1ccc(CCC(=O)NCc2ccc(C)cc2)cc1,-11,1,3,-7,1,-2,i,9,
Cc1ccc(CNC(=O)CCc2ccc(S(=O)(=O)NC3CCCCC3)cc2)cc1,6,1,-7,-2,1,-6,i,nt,
O=C(CCN1CCCCCC1)Nc1ccccc1F,nt,-2,-12,nt,2,10,i,nt,
COc1ccc(C(=O)Nc2ccccc2N2CCOCC2)cc1[N+](=O)[O-],22,-13,-9,3,0,1,i,-5,
CSCCC(NC(=O)c1ccoc1C)C(=O)O (centres undefined),7,-14,-5,-1,0,3,i,-4,
CC(C)(C)c1ccc(OCCCC(=O)Nc2nnc(C3CC3)s2)cc1,nt,-5,nt,nt,3,-10,nt,-4,
CC1CCN(S(=O)(=O)c2ccc3c(ccn3CCC(=O)N3CCCCC3)c2)CC1,4,-9,-7,-7,-2,-1,i,2,
COc1ccccc1/C=C(\NC(=O)c1ccc(OC)c(OC)c1)C(=O)Nc1cc([N+](=O)[O-])ccc1C,-4,nt,17,-4,0,0,i,11,
Cc1cc(OC(=O)Cc2cccc3ccccc23)c([N+](=O)[O-])c(=O)[nH]1,4,nt,13,3,1,1,i,4,
Cn1cc(C(=O)NCc2cccs2)c(=O)c2cc(S(=O)(=O)N3CCCC3)ccc21,7,-6,-6,2,2,3,i,nt,
CC(C)(C)c1ccc(S(=O)(=O)CCc2ccccn2)cc1,-8,-12,nt,9,-4,1,i,nt,
CC(Oc1ccc(C(=O)c2ccc(F)cc2)cc1)C(=O)N1CCOCC1 (centres undefined),nt,-8,nt,nt,5,-1,i,nt,
CCC(=O)N1CCN(CCN=CC2=C(O)CC(c3ccc(OC)cc3)CC2=O)CC1 (centres undefined),-3,-21,-5,-4,1,3,i,12,
COc1ccc2nc(SCC(=O)Nc3cc(C)on3)c(C#N)cc2c1,-8,4,nt,2,-32,-8,i,-9,
Cc1ccc(OCc2ccc(C(=O)NCc3cccnc3)cc2)cc1C,0,nt,10,4,-2,-15,i,43,
CC(NC(=O)c1cc(Br)ccc1Cl)c1ccccc1 (centres undefined),10,-4,16,0,0,-1,i,14,
O=c1ccnc(NCCc2ccccc2)[nH]1,4,-14,-2,-1,-1,1,i,nt,

# Filtered by structure: those above containing a cyano group.
SMILES,PABP FP inh,Yeast UUG start,CSC inhib,eIF4H inh,MT1-MMP act inh,MT1-MMP act inh RFP,Rce1 inh,Env fusion inh,others
COc1ccc(-c2nn(CCC#N)cc2/C=N/O)cc1OC,6,nt,-9,-8,-4,0,i,-12,
COc1ccc2nc(SCC(=O)Nc3cc(C)on3)c(C#N)cc2c1,-8,4,nt,2,-32,-8,i,-9,

# Other structures
SMILES,PABP FP inh,Yeast UUG start,CSC inhib,eIF4H inh,MT1-MMP act inh,MT1-MMP act inh RFP,Rce1 inh,Env fusion inh,others
CSCCC(/C(O)=C(\C#N)c1nc2ccccc2[nH]1)N1C(=O)c2ccccc2C1=O (centres undefined),-10,-18,-7,-2,-31,-17,nt,nt,
CCN1CCN(CCc2nc3cc(NC(=O)COc4ccccc4)ccc3n2C)CC1,-4,-15,-10,1,3,1,i,-1,
Cc1cc(C)c(NC(=O)CSc2nnc(-c3ccncc3)n2Cc2ccco2)c(Cl)c1,-2,-20,15,-4,-9,2,i,7,
O=C(Nc1c(C(=O)N2CCOCC2)cnn1-c1ccccc1)c1ccc(F)cc1,8,-16,8,-2,-4,-1,i,-13,
COc1cccc(NC(=O)CN2C(=O)COc3ccc(S(=O)(=O)N4CCC(C)CC4)cc32)c1,nt,-5,-9,nt,-4,-2,i,5,
Cn1c(N)c(C(=O)COC(=O)CSc2ccc(Cl)cc2)c(=O)n(C)c1=O,-16,0,-3,-14,16,8,i,-26,
CCc1nc2c(OCc3ccc(Cl)cc3Cl)cccn2c1N(C=O)Cc1ccc(OC)cc1,nt,-17,nt,nt,-7,-16,nt,37,
NC(=O)c1cc(Cl)ccc1OCC(=O)N1CCCc2ccccc21,-16,-1,-12,-2,4,-4,i,11,
O=C(c1cnc2nc3ccccc3n2c1)c1cc(F)ccc1O,18,nt,3,8,-4,6,i,-20,
CN(C)C(=O)CSc1nnc(-c2ccc(S(=O)(=O)N3CCCC3)cc2)n1C,-1,nt,-13,1,4,6,i,4,
C=CCn1c(CNc2ccccc2)nnc1SCC(=O)N/N=C/c1ccccc1O,2,nt,49,10,0,-4,i,nt,
CCOC(=O)CSc1nnc(NC(=O)c2ccco2)s1,7,-22,2,4,-1,0,i,3,
COC(=O)CCc1c(C)[nH]c(=S)[nH]c1=O,48,-12,-3,55,-1,2,i,nt,eIF4H inh retest=-4;PABP FP inh retest=2
Cc1ccc(C(=O)CSc2nsc(C)c2C#N)cc1,-4,nt,9,-7,-4,2,i,nt,
COc1ccc(OC)c(N=Nc2c(O)c3ccccc3[nH]c2=O)c1,nt,-7,nt,nt,25,11,nt,26,
Cc1ncc(S(=O)(=O)c2ccc(Cl)cc2)c(-c2ccccc2)n1,0,-15,-4,-16,-1,1,i,nt,
COCCN(Cc1cc2cccc(C)c2[nH]c1=O)C(=O)c1ccccc1,8,-4,nt,-6,nt,nt,i,-33,
COCCCNC(=O)CC(NS(=O)(=O)c1ccc(Cl)cc1)c1ccc(OC)cc1 (centres undefined),0,-6,-4,0,7,0,i,nt,
Cc1ccc(S(=O)(=O)Cn2nnnc2C(C(C)C)N2CCN(C(=O)c3ccco3)CC2)cc1 (centres undefined),nt,-5,-20,nt,-3,-1,i,nt,
COc1ccc(/C=C/C(=O)O/N=C(\N)c2cccnc2)cc1OC,4,nt,-4,-6,3,-2,i,-14,
CCC1=Nc2cc(C(=O)NCCN3CCOCC3)ccc2Sc2ccc(Br)cc21,2,-13,6,-9,5,2,i,6,
Cc1c(OCc2ccccc2)c(=O)ccn1Cc1ccc(Cl)cc1,-16,nt,23,1,-4,-12,i,nt,
N#Cc1c(-c2ccc(Cl)cc2)cc(-c2cccs2)nc1SCC(=O)O,nt,nt,nt,nt,0,-1,i,5,
O=C(NCCO)C1CCN(C(=O)c2ccc(-c3ccccc3)cc2)CC1,-3,nt,6,-8,3,3,i,-4,
C/C(Cl)=C/CSc1nn2c(=O)c3ccccc3nc2s1,4,3,8,-6,-1,0,i,nt,
Cc1ccccc1NC(=O)NCC1CCCO1 (centres undefined),-14,nt,-5,-5,-2,1,i,nt,
O=C(OCCn1cncn1)c1cc2ccccc2oc1=O,1,nt,-19,4,-3,-2,i,nt,
COC(=O)COc1ccc(S(=O)(=O)Nc2ccc3c(c2)OCO3)cc1Cl,-7,0,8,-1,3,-2,i,nt,
CCC(C)NC(=O)Nc1ccc(Br)cc1Cl (centres undefined),-6,nt,4,-12,5,-14,i,15,
NS(=O)(=O)c1ccc(CCNC(=O)Cc2ccc(S(=O)(=O)N3CCCC3)s2)cc1,11,nt,-8,31,-4,-4,i,10,
COCC1CCCN(Cc2nc(Cc3ccccc3)no2)C1 (centres undefined),0,nt,-13,5,-2,2,i,1,
CCN(CC)S(=O)(=O)c1ccc(/C=C/C(=O)Nc2ccccc2N2CCOCC2)cc1,-12,4,9,-3,4,-2,i,-5,
Cc1cc(C(=O)Nn2cnnc2)ccc1[N+](=O)[O-],-3,-7,-4,-9,0,-2,i,-2,
CCC1(COC(=O)Nc2cccc(Cl)c2)COC1,-8,-11,-4,-5,-1,-3,i,-23,
CC[C@@H](C)[C@@H]1CN([C@@H](C)CN2CCC[C@H]2CN2C(N)=NC[C@H]2C(C)C)C(=N)N1CCc1ccc(Cl)c(Cl)c1,nt,-2,nt,nt,2,4,nt,22,
